# Mtb hypoxia inh: PubChem AID 1159583; M. tuberculosis hypoxia-regulated fluorescent reporter, fluorescence; fluorescence inhibition, % (no concentration beside the values); 300,000 compounds, 0.1% hits;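 active = 35 to 45% if threefold the growth effect, above 45% if 1.5-fold the growth effect; inactive = the rest, general growth blockers included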;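 also: wells of about 50 µL received 100 nL stock; 0% = vehicle wells and 100% = reference inhibitor wells; whole bacteria with a GFP reporter of the hypoxia response; strong numbers were not always called active; many hits fall short of the cut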
# RN4220 kill: growth inhibition of S. aureus RN4220, primary screen, OD600. 16 h. inhibition, % (no concentration beside the values). 330,000 compounds, 0.33% hits;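 active = z-score of -3 or lower and OD600 up to 0.18 on both plates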;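 also: plate controls were untreated cells for no effect and reference antibiotic for full effect; stock transfer was 100 nL into about 80 µL; one replicate is shown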
# BJeLR lethal: MLPCN primary cell-based screen for lethality selective to Ras in HRASV12 cells. BJeLR (HRASV12) viability, CellTiter-Glo ATP luminescence, 48 h; reference of the scale not given here. inhibition, % (no concentration beside the values). 300,000 compounds, 0.17% hits. AID 1554, 2009;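 active = replicate mean above 50%; inconclusive = above 50% but judged a plate artefact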;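 also: 50 nL library stock added to about 25 µL; numbers are from one replicate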
# ugtP null kill: growth inhibition of ugtP-null S. aureus, primary screen, RN4220 ugtP deletion, OD600; AID 1259309, 2017; growth inhibition, % (concentration not given with the values); 330,000 compounds, 0.54% hits; 16 h; some inactives read as strong as hits;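 active = z-score under -3 and OD600 up to 0.15 on both plates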;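 also: plate controls were untreated wells for no effect and antibiotic for full effect; wells of about 80 µL received 100 nL stock; the first replicate is given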
# Autofluor counter: counter-screen for toxin protease inhibitors: compound fluorescence; compound autofluorescence counterscreen, microsphere flow cytometry; stronger effect = higher value; fluorescence intensity (concentration not given with the values); 360,000 compounds, 3.1% hits;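 active = at least 3 SD above the mean of all compounds, about 16000 in these data; inconclusive = too few beads counted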;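 also: 100 nL of 1 mM stock went into each well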
# PrP 5UTR inh: inhibition of PrP 5' UTR reporter expression; cell-based PrP 5' UTR mRNA reporter, plate reader; inhibition, % (concentration not given with the values); AID 488862, 2010; 340,000 compounds, 0.35% hits;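 active = every replicate at 50% or more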;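 also: 0 = median of the neutral control wells; tested in H4 reporter cells; numbers are from one replicate; inactives centre near -14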
# Mtb hypoxia inh growth: also measured in Mtb hypoxia inh; calls as there; growth inhibition, %; measured here: M. tuberculosis growth (absorbance);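 0% = vehicle and 100% = reference antibiotic; read after six days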
# * = called active by the depositor; ? = inconclusive; . = no result given.
# The line under a structure holds: ugtP null kill	Mtb hypoxia inh	BJeLR lethal	Autofluor counter	Mtb hypoxia inh growth	PrP 5UTR inh	RN4220 kill
O=C1C(=O)N(Cc2cccnc2)C(c2cccc(F)c2)/C1=C(/O)c1ccc2c(c1)OCO2 (configuration not stated)
    2	5	-4	4792	-2	-4	1.1
CCc1nnc(NS(=O)(=O)c2ccc(NC(=S)NC(=O)c3ccccc3)cc2)s1
    74	12	-9	2124	6	2	18
Cc1nn(C)c(C)c1/C=C(/C(=O)C(C)C)n1cncn1
    4	-4	3	5241	5	-11	1.6
O=c1cc(CSc2nnc3ccccn23)c2c(ccc3ccccc32)o1
    -4	-5	-7	7308	2	-9	-2.2
Cc1ccc(/C=C(\NC(=O)c2ccccc2)C(=O)NCC2CCCO2)o1 (configuration not stated)
    8	14	-1	2071	10	4	1.0
Cc1[nH]c(=O)[nH]c(=O)c1NC(=O)CSc1ncccc1-c1nc2ccccc2[nH]1
    1	4	-4	9218	3	-17	2.0
Cc1cc(C(=O)CS(=O)(=O)c2ccc(F)cc2)cc(C)c1OC(=O)N(C)C
    4	7	0	3966	-7	-56	2.5
CC(=O)N(C)c1ccc(OCC(O)CN(c2ccccc2C)S(=O)(=O)c2ccc(C)cc2)cc1 (configuration not stated)
    0	6	2	?	16	1	7.0
O=C1OC(c2ccc3c(c2)OCO3)N(C(=O)c2ccc(Cl)c(Cl)c2)c2ccccc21 (configuration not stated)
    28	.	0	4621	.	-30	22
Cc1ccc(Cl)cc1N1CCN(C(=O)C2CCN(c3nnc(-n4cccc4)s3)CC2)CC1
    3	.	10	4554	.	-48	7.8
Cc1cc(C)n(-c2nc3c(c(=O)n(C)c(=O)n3C)n2Cc2cccc(Br)c2)n1
    8	5	.	5537	13	7	1.7
COc1ccccc1NS(=O)(=O)c1ccc(C)c(C(=O)NCC(c2ccco2)N2CCCCC2)c1 (configuration not stated)
    4	3	-4	?	5	-11	1.0
CN(C)c1cc(NC(=O)CNC(C)(C)C)c2ccccc2n1
    3	2	-5	3913	0	-5	1.1
Cc1cc(C)c2c3c(oc2n1)C(=O)N(c1cccc(Cl)c1)CC(=O)N3
    1	0	4	4390	3	-12	2.4
c1ccc(CCn2cnc3ccccc32)cc1
    6	-4	-2	4613	9	-10	8.5
CCOc1cc(/C=C2\C(=O)ON=C2C)ccc1OCc1ccccc1
    4	9	0	2081	7	-27	6.9
COc1cccc(/C=N\NC(=O)Cn2nnc3ccccc32)c1O
    .	.	1	4387	.	-1	.
NC(=O)C1CC2(CC(c3cccc(NC(=O)C4CCC(=O)N4)c3)=NO2)CN1C(=O)Cc1ccc([N+](=O)[O-])cc1 (configuration not stated)
    -1	0	.	.	0	.	2.5
OCC1(Cc2ccccc2F)CCCN(CCc2ccccc2)C1 (configuration not stated)
    3	7	10	3873	16	-13	4.1
O=C(NNS(=O)(=O)c1ccccc1[N+](=O)[O-])c1ccccc1Cl
    1	7	5	4076	2	-13	0.3
CCc1ccc(S(=O)(=O)Nc2ccc(Br)cn2)cc1
    .	.	-9	3998	.	-6	.
O=C(NCc1ccco1)c1ccc2[nH]c(=O)c(=O)[nH]c2c1
    -1	8	-3	5417	5	-8	4.6
Cc1nn(-c2ccccc2)c(Cl)c1/C=C/C(=O)c1ccc(O)cc1
    86*	6	-3	1904	-10	-36	34
CC1(C)CC(=O)C2=C(C1)NC(=O)NC2c1ccccc1Cl (configuration not stated)
    5	5	-8	3468	7	-1	4.6
O=C(O)C1CN2CCC1CC2 (configuration not stated)
    -11	-2	2	7016	5	-21	6.8
CCOC(=O)C1(CCOc2ccccc2)CCN(CCCn2cccn2)CC1
    7	17	4	5001	9	-14	1.3
Cc1ccc(S(C)(=O)=O)cc1C(=O)OCC(=O)N(Cc1ccccc1)Cc1ccccc1
    13	8	.	3518	2	-12	9.5
Cc1nc(C(F)(F)F)ccc1C(=O)NCC(O)c1ccccc1 (configuration not stated)
    -5	10	-1	3822	12	-15	3.3
Cc1cc(C)c(S(=O)(=O)c2ccccc2C)c(N(C)C)n1
    6	.	8	4681	.	-5	3.6
CN1CCC(N(C)C(=S)NCCc2ccccc2)CC1
    4	1	6	4561	-6	-21	5.5
O=S(=O)(c1ccc2nnn(O)c2c1)N1CCOCC1
    1	-8	.	5503	1	-23	0.3
CCSc1nc(-c2ccccc2)nc2c1CCCC2
    88*	-4	3	2237	7	-59	4.5
Cc1ccnc(SCC(=O)Nc2sccc2C#N)n1
    2	17	4	5597	24	-14	4.5
Cc1c(Cl)cnc(NC(=O)COC(=O)c2cc3c(s2)CCC(C)C3)c1Cl (configuration not stated)
    1	3	-12	2707	2	-36	1.9
O=C(c1ccccc1)[C@@H]1[C@@H]2C(=O)N(c3ccc(F)cc3)C(=O)[C@@H]2C2CCCN21 (some centres not stated)
    5	7	-1	5429	6	-14	0.7
O=[N+]([O-])c1cccc(/C=C/c2nc(C=Nc3ccccc3)c(O)o2)c1
    -4	1	-2	11328	4	-41	7.1
CCS(=O)(=O)N1CCc2cc(OC)c(OC)cc2C1
    3	8	-7	4233	10	-18	4.4
Cc1nn(-c2ccccn2)c(C)c1Oc1ccccc1O
    -4	3	5	8022	7	-39	8.9
COc1ccc(NS(=O)(=O)c2ccc(Cl)c(NC(=O)c3cccnc3Cl)c2)cc1
    9	1	-5	3991	-8	-10	0.3
O=C(NC1CCCC1)C(c1cccnc1)N(C(=O)c1csnn1)C1CC1 (configuration not stated)
    -3	-2	-8	5073	4	-19	4.2

# Reprinted from the part before: 3 entries; new compounds follow.
# The line under a structure holds: ugtP null kill	Mtb hypoxia inh	BJeLR lethal	Autofluor counter	Mtb hypoxia inh growth	PrP 5UTR inh	RN4220 kill
Cc1nn(-c2ccccn2)c(C)c1Oc1ccccc1O
    -4	3	5	8022	7	-39	8.9
COc1ccc(NS(=O)(=O)c2ccc(Cl)c(NC(=O)c3cccnc3Cl)c2)cc1
    9	1	-5	3991	-8	-10	0.3
O=C(NC1CCCC1)C(c1cccnc1)N(C(=O)c1csnn1)C1CC1 (configuration not stated)
    -3	-2	-8	5073	4	-19	4.2
COc1ccc(NS(=O)(=O)c2ccc(N3CCOCC3)c(N)c2)cc1
    10	29*	.	3564	51*	-6	5.4
Cc1ccccc1C(=O)N1CCC(n2nccc2NC(=O)C2CC2)CC1
    3	-1	0	5065	-7	1	0.3
COc1ccc(S(=O)(=O)N2CC(O)CC2C(=O)OCc2nc3sc(C)c(C)c3c(=O)[nH]2)cc1 (configuration not stated)
    2	4	1	2462	5	-3	-0.8
c1ccc(-c2nccc(-c3ccc(-n4cnc5ccccc54)cc3)n2)cc1
    -13	0	-5	2343	6	-16	2.7
CSc1ccc(CCNC(=O)Cn2ncc3c([nH]c4ccccc43)c2=O)cc1
    -7	-4	0	6092	6	-7	1.2
Clc1ccc(COn2c(-c3ccc(Cl)cc3Cl)nc3ncccc32)cc1
    -16	5	-17	2868	7	-26	-1.4
CCOC(=O)c1ccc(NC(=O)c2nc[nH]c2C(=O)N[C@@H](Cc2ccccc2)C(=O)OC(C)(C)C)cc1
    .	.	-12	3035	.	-9	.
CCS(=O)(=O)c1ccc2oc(Nc3ccccc3Cl)nc2c1
    -5	-1	9	5091	1	-80	0.9
CC(=O)Nc1ccc(NC(=O)c2cccc(S(=O)(=O)N(C)C3CCCCC3)c2)cc1
    2	1	.	8350	8	-13	5.4
CCN(CC)c1ccc(NC(=O)CN2C(=O)CSc3ncccc32)c(C)c1
    1	.	15	5553	.	13	1.3
C/C(CC(=O)Nc1ccc(N(C)C)cc1)=N\NC(=O)Cc1csc(N)n1
    .	.	9	2086	.	-12	.
COC(=O)c1ccc(COC(=O)C2CCN(S(=O)(=O)c3ccc(C)c(C)c3)CC2)o1
    11	-4	2	4132	-3	-22	5.3
NNc1ncnc2scc(-c3ccc(Cl)cc3)c12
    6	17	3	6574	4	-5	32
O=C(CC1C(=O)NCCN1C(=O)Nc1ccc(F)cc1)Nc1cc(Cl)ccc1Cl (configuration not stated)
    -11	12	-1	5319	1	-49	-2.9
CCCn1c(N)c(C(c2ccc(OC)cc2)N2CCN(c3ccccc3)CC2)c(=O)[nH]c1=O (configuration not stated)
    1	.	-4	2276	.	-16	-0.2
CCOC(=O)C(Oc1ccc2c(-c3ccccc3)cc(=O)oc2c1C)c1ccccc1 (configuration not stated)
    25	7	-12	2216	9	-20	2.6
CCN1C(=O)C(=Cc2ccc(N3CCOCC3)o2)C(=O)N(CC)C1=S
    0	-1	2	9160	9	-16	2.7
Cc1ccc(NC(=O)CS(=O)CC(=O)NCC2OCCc3ccccc32)c(C)c1 (configuration not stated)
    3	8	-2	3220	-1	-12	0.4
CC(C)OC(=O)c1c(NC(=O)CCC(=O)O)sc2c1CCCCC2
    -2	-4	1	2443	3	15	12
COc1ccc(C(=O)Nc2ccc(O)c3c(=O)cc(-c4cccc(Cl)c4)oc23)cc1
    7	4	-1	3447	11	2	1.2
O=C(COC(=O)c1ccc2c(c1)OCO2)Nc1ccccc1Cl
    -4	3	.	3550	-19	-12	-1.9
Cc1ccc(/C=C/C(=O)c2cc(Br)ccc2OC(=O)c2ccco2)cc1
    27	6	10	4043	11	-25	2.4
O=C(Nc1ccc(C(=O)Oc2ccccc2)c(O)c1)c1ccco1
    11	.	1	11458	.	.	-2.5
N#CC(c1ccc(O)cc1)N1CCOCC1 (configuration not stated)
    4	15	7	5847	1	-9	2.7
CCN(CC)CCN1C(=O)C(=O)/C(=C(/O)c2cccc(OC)c2)C1c1ccccn1 (configuration not stated)
    -1	7	1	3961	10	-19	-2.8
CCOc1cc(C2C(C#N)=C(N)OC3=C2C(=O)CC(C)(C)C3)cc([N+](=O)[O-])c1O (configuration not stated)
    1	1	-4	4689	15	-16	0.5
CCCOc1ccc(Cc2c(Cl)nc(SC)nc2N(C)C)cc1
    87*	-7	-6	2191	2	-11	-2.2
O=C(c1ccc2c(=O)n3c(nc2c1)CCCCC3)N1CCN(Cc2ccccc2)CC1
    10	12	-12	7727	9	-25	3.9
Cc1c(NC(=O)CN2C(=O)c3ccc([N+](=O)[O-])cc3C2=O)c(=O)n(-c2ccccc2)n1C
    -2	5	8	5020	-2	-41	5.0
COc1ccccc1CCC(=O)N1CCN(C(=O)c2ccccc2)CC1
    9	9	1	3249	0	-11	-0.1
CCN(CC)C(=O)c1sc2nc(-c3cccs3)cc(-c3cccs3)c2c1N
    5	13	-4	4184	4	-19	1.3
OC(CON=C1c2ccccc2-c2ccccc21)CN1CCNCC1 (configuration not stated)
    -1	15	11	4339	8	0	-1.0
O=C(O)CC1(CC(=O)Nc2ccc(Br)cc2)CCCCC1
    8	10	2	4748	4	-18	14
COc1ccccc1CN1CC(C(=O)N(C)CCc2nc3ccc(F)cc3[nH]2)CCC1=O (configuration not stated)
    7	14	1	5533	5	-3	-0.9
O=C(Nc1ccc(Cl)cc1Cl)NC1CCN(S(=O)(=O)c2ccc(F)cc2)CC1
    -13	13	9	3565	4	-34	-1.0
O=C(Oc1ccccc1)c1ccc2nsnc2c1
    -4	-7	9	5734	0	-13	4.3
Cc1ccc(C(=O)NCCN2CCOCC2)cc1S(=O)(=O)N1CCCCC1
    12	12	10	5980	-1	-23	4.6
COC(=O)CNC(=O)CNC(=O)c1nn(-c2ccc(OC)c(Cl)c2)c(=O)c2ccccc12
    5	-3	-7	3532	-9	-14	2.0
CC(=O)N1CCN(C(=O)COC(=O)CNC(=O)c2ccc(C)cc2)CC1
    4	5	.	3006	-5	-10	1.2
CC(C)OC(=O)c1cc(=O)[nH]c2ccccc12
    -2	.	1	3028	.	-12	1.2
O=C(Nc1ccc(NC(=O)c2ccco2)c(Cl)c1)c1cccc([N+](=O)[O-])c1
    0	-6	-6	4905	6	-16	1.0
CC(C)C(=O)Nc1ccc(N2CCOCC2)c(S(=O)(=O)Nc2ccccc2Cl)c1
    3	1	.	2969	0	6	6.1

# Screening results deposited in PubChem by several laboratories.
